# NS1 function inh – blocks influenza NS1 protein function. S. cerevisiae slowed by influenza A NS1, growth recovery by OD600. Potency, µM (highest dose often 46.1 µM), without a hit: at the top dose activity, positive = more growth. 270,000 compounds, 0.4% hits; note: actives are rising curves; nearly all actives have a fitted effect of over 50% in size
#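 Read-out: OD600 growth recovery of NS1-expressing budding yeast. Cells grown overnight at 30C in -URA glucose medium, washed, resuspended and diluted 1:100 in 2% galactose assay medium, pH 6.0. Same strain lacking NS1 served as positive control.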
# SARS PLpro yeast – inhibitors of SARS-CoV papain-like protease in yeast; S. cerevisiae expressing SARS-CoV PLpro, growth rescue; control for the full effect not named in the record; Potency, µM (highest dose often 32.9 µM), without a hit: top-dose activity, positive = growth rescue; 330,000 compounds, 0.19% hits; note: 0% is about no effect; nearly all actives have a fitted effect of over 55% in size; growth read by luminescence after 48 h
# RE007 growth inh – less growth of the S. pombe RE007 Vpr strain; S. pombe RE007 Vpr strain, BacTiter-Glo ATP luminescence, 24 h; control for the full effect not named in the record; Potency, µM (top dose mostly 92.2 µM), for inactives: at the top dose activity change, negative = less growth; 360,000 compounds, 0.21% hits; active = well fitted falling curve with a large enough effect; inconclusive = small, poorly fitted or top-dose-only effect; inactive = no such curve, though single readings can be large or run the other way;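 note: % is set by controls: 0 for no effect and ±100 for the full control effect; nearly all actives have a fitted effect of over 50% in size; the assay follows cell death caused by Vpr and the record does not say whether a fall means rescue or toxicity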
#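 Fission yeast strain RE007, carrying one chromosomally integrated HIV-1 vpr copy, was seeded at OD 0.01 in PMG+AL medium with 23 nL pinned compound. After 24 h at 30 °C and 99% humidity, viability was read by BacTiter-Glo luminescence.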
# Lassa entry inh – inhibitors of Lassa virus binding or cell entry; Lassa virus pseudotype entry inhibition, cell reporter; control for the full effect not named in the record; Potency, µM (highest dose often 37.9 µM), for inactives: at the highest dose activity change, negative = inhibition, usual class: inhibitors; 300,000 compounds, 1.2% hits; AID 540256; active means well fitted inhibition curve with a large enough effect; inconclusive means small, poorly fitted or top-dose-only effect, or effect the other way; inactive means flat fitted curve, though single readings scatter; tested in HEK293 cells; note: % is set by controls: 0 for no effect and ±100 for the full control effect; nearly all actives have a fitted effect of over 50% in size; luciferase read-out
# StopGo reporter – lowers the luciferase signal of an FMDV 2A StopGo reporter | human cells with a luciferase reporter of 2A StopGo recoding; control for the full effect not named in the record | Potency, µM (doses to about 57.9 µM), inactives show top-dose signal change, negative = less light | 410,000 compounds, 1.2% hits | AID 1159524; active = well fitted falling curve with a large enough effect; inconclusive = small, poorly fitted or top-dose-only effect; inactive = no such curve, though single readings can be large or run the other way; tested in HEK293T cells; note: % is set by controls: 0 for no effect and ±100 for the full control effect; nearly all actives have a fitted effect of over 45% in size; luciferase light after 4 h
# Cruzain noTriton – inhibitors of Trypanosoma cruzi cruzain without detergent | P25779 | Potency, µM, for inactives: max response, negative = inhibition, usual class: inhibitors | purified cruzain, Z-FR-AMC fluorescence, no detergent | AID 1476 | 200,000 compounds, 2.3% hits; active = well fitted curve in the direction sought with a large enough effect; inconclusive = small, poorly fitted or top-dose-only effect, or another doubt; inactive = no such curve, though single readings can be large; an effect the other way counts as inactive or inconclusive;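 note: plate controls were enzyme without inhibitor for no effect and buffer without enzyme for full effect; nearly all actives have a fitted effect of over 40% in size; top concentration of the series not given in the record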
# Target sequence (P25779 123-467 limits assumed): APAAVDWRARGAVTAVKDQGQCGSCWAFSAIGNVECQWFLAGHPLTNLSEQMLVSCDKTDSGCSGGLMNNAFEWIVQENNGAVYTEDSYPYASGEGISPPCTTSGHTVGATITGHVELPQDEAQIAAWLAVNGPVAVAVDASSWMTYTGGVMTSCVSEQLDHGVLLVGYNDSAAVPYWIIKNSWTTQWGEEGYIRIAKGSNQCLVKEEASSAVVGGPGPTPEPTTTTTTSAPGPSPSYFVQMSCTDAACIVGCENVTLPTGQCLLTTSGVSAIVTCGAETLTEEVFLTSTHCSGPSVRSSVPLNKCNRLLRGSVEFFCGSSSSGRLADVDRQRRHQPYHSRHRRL
#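 Detergent-free condition (0.00005% Triton X-100) in acetate buffer pH 5.5 with DTT. 1.5 nM enzyme and compound were pre-mixed 15 min, then 2 uM Z-FR-AMC substrate added; reaction progress from fluorescence change between first and third reads (60 s).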
# Cruzain inh Det – blocks cruzain activity in presence of Triton detergent | P25779 | purified cruzain, Z-FR-AMC fluorescence, 0.01% Triton | Potency, µM, for the others: max response, negative = inhibition, usual class: inhibitors | 200,000 compounds, 0.43% hits; active = well fitted curve in the direction sought with a large enough effect; inconclusive = small, poorly fitted or top-dose-only effect, or another doubt; inactive = no such curve, though single readings can be large; an effect the other way counts as inactive or inconclusive;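 note: plate controls were neutral wells for no effect and buffer without enzyme for full effect; nearly all actives have a fitted effect of over 40% in size; top concentration of the series not given in the record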
#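 Read-out: AMC fluorescence (360 nm excitation, 450 nm emission), four reads over 2 min, first-to-third difference used. Conditions: cruzain 1.5 nM, Z-FR-AMC 2 uM, pH 5.5 acetate, 5 mM DTT, 0.01% Triton X-100.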
# Marburg entry inh – blocks Marburg virus binding to or entry into cells | Marburg virus pseudotyped entry inhibition, cell reporter; control for the full effect not named in the record; about a third of the inactives were read at about 46 µM | Potency, µM (series often up to 37.8 µM), inactives show top-dose activity change, negative = inhibition, usual class: inhibitors | 300,000 compounds, 1.8% hits; active = well fitted inhibition curve with a large enough effect; inconclusive = small, poorly fitted or top-dose-only effect, or effect the other way; inactive = flat fitted curve, though single readings scatter; tested in HEK293 cells; about a fifth of its hits are not listed in these tables; note: % is set by controls: 0 for no effect and ±100 for the full control effect; luciferase read-out
# Active calls of the source: *; ? = inconclusive; . = not tested or not shown; & = joins results of further samples; [ ] = remark or other dose. Unless noted, calls come from the whole dose curve; as a rule, active means well fitted rising curve with a large enough effect; inconclusive means small, poorly fitted or top-dose-only effect; inactive means no such curve, though single readings can be large or run the other way. Potency is the fitted concentration of half-maximal effect.
SMILES,NS1 function inh,SARS PLpro yeast,RE007 growth inh,Lassa entry inh,StopGo reporter,Cruzain noTriton,Cruzain inh Det,Marburg entry inh
Cc1ccc(NC(=O)CN(C)C(=O)c2ccccc2Cc2ccccc2)cc1,.,1%,2%,1%,-16%,.,.,?
O=C(CN1CCN(c2ccc(Cl)cc2)CC1)Nc1ccc(F)c(F)c1,-1%,-1%,-6%,-19%,0%&-24%,-7%&-21%,-4.8%&-7.0%,-19%&-19%[46.1 µM]
Cc1ccc(NS(=O)(=O)c2ccc3c(c2)NC(=O)C(C)C(=O)N3)cc1C (stereo unspecified),-3%,-2%,2%,.,-27%,.,.,.
CC(C)(C)c1ccc(S(=O)(=O)NCC(=O)N2CCN(C(=O)c3ccco3)CC2)cc1,-1%,0%,0%,?,-8%,-1%,6.1%,4%
CCNC(=O)CSc1nc2ccccc2c(=O)n1-c1cccc(OC)c1,6%,2%,20%,9%,-14%,.,.,26%[46.1 µM]
CCOC(=O)c1[nH]c(C)c(C(=O)OCC(=O)NC(=O)NC(C)(C)C)c1C,13%,?,9%,21%,9%,?,1.1%,-10%
OC(CN1C2=NCCCN2c2ccccc21)c1ccc2c(c1)OCO2 (stereo unspecified),5%,-3%,-16%,4%,2%,7%,4.7%,-13%
Cc1cc(C)n2nc(C(=O)Nc3cccc(S(=O)(=O)N(C)c4ccccc4)c3)nc2n1,-35%,-6%,-11%,.,-19%,.,.,.
COc1cccc(CNC(=O)CCc2cn(Cc3ccccc3Cl)c3ccccc23)c1,.,.,.,-3%[46.1 µM],1%,?,0.4%,.
O=C(Nc1ccc(F)cc1F)c1cc2c(=O)n3ccccc3nc2s1,.,.,.,17%[46.1 µM],14%,1%,-2.3%,10%[46.1 µM]
Cc1ccc(N(C(=O)C2COc3ccccc3O2)C(C(=O)NC2CCCCC2)c2cn(C)nc2C)cc1 (stereo unspecified),6%,?,.,-15%,.,115%,0.6%,1%
O=C(COc1ccccc1)NCC(=O)NC1=NCCS1,-4%,1%,-7%,-1%,8%,-17%,-0.7%,-2%
N#Cc1ccc(C(=O)Nc2cc(S(=O)(=O)N3CCCC3)ccc2OCC(F)(F)F)cc1,1%,2%,1%,22%,0%,8%,-1.3%,-1%
COc1ccc(CCNC(=O)c2c(O)c3cccc4c3n(c2=O)CC4)cc1,-16%,-11%,10%,-29%,-16%,?,-0.1%,19%
CCc1c(C)sc(NC(=O)C2CCCO2)c1C#N (stereo unspecified),4%,13%,8%,28%,21%,5%,-7.4%,2%
O=C(Nc1ccccc1[N+](=O)[O-])c1cc(S(=O)(=O)N2CCOCC2)cs1,-5%,-4%,-17%,-1%,?,.,.,-13%
CC(C)COc1ccc(C(=O)N/C(=C\c2cccc([N+](=O)[O-])c2)C(=O)OC(C)C)cc1,12%,0%,-13%,-17%,-2%,-2%,-2.9%,-8%
COc1ccc(NC(=O)C(=O)NCC(c2cccnc2)N2CCc3ccccc3C2)cc1 (stereo unspecified),.,.,.,?,?,0%,-1.6%,.
CCNS(=O)(=O)c1ccc2c(c1)NCC2,26%,-1%,7%,?,-3%,8%,0.4%,8%
O=C(COc1cccnc1[N+](=O)[O-])NCc1ccccc1,3%,2%,0%,.,-12%,.,.,.
CCc1cc2c(=O)nc3n(c2s1)Cc1ccccc1/C3=C(/O)c1ccc(F)cc1,-4%,-14%,.,.,.,?,-0.6%,.
O=C(Nc1ccccc1OC(=O)c1ccc(Cl)cc1)c1ccc(Cl)cc1,-3%,-32%,-4%,-1%,54%[activator],-26%,-10%,-27%
COc1cc(CCNC(=O)c2ccc3c(c2)c(C)c(C)n3Cc2cccc(C)c2)cc(OC)c1OC,.,.,.,-12%[46.1 µM],?,-8%,-1.0%,.
CCOC(=O)c1sc(N(Cc2ccccc2)C(=O)CCl)nc1C,-8%,-4%,-2%,18µM*,?,.,.,?
CCOC(=O)N1CCN(CC(O)COc2ccc(C)cc2C(C)(C)C)CC1 (stereo unspecified),-21%,-23%,-5%,-4%,0%,20%,0.4%,0%
CC(Sc1cccc[n+]1[O-])c1ccccc1 (stereo unspecified),5%,-1%,-4%,-5%,1%,.,.,?
COc1cc(OC)c(/C=N/N2CCN(c3ccccc3OC)CC2)c(OC)c1,-14%,-14%,-8%,.,-18%,.,.,.
CN(C)Cc1ccc(CNC(=O)c2ccc(Cl)c(S(=O)(=O)NC3CC3)c2)cc1,.,2%,6%,-1%,-1%,.,.,?
CCCCNC(=S)Nc1ccc(Cl)cc1,-23%,?,-6%,3%,56%[activator],1%,-4.9%,-25%
Cc1ccc(Cl)c(NC(=O)CN2CCNC(=O)C2)c1Cl,.,-5%,15%,8%,-5%,.,.,0%[46.1 µM]
Cc1ccc(N(C)C(=O)N2CCN(S(=O)(=O)c3ccc(C)c(C)c3)CC2)cc1,-6%,5%,12%,?,?,23%,-7.4%,0%
CC1(C)Cc2ccccc2C(N/N=C/c2ccc(Cl)cc2)=N1,-9%,1%,-11%,-12%,0%,-5%,-11%,-5%
CN(c1ccc(OCC(=O)NC2CCC(O)CC2)cc1)S(=O)(=O)c1ccc(Cl)cc1 (stereo unspecified),.,2%,6%,1%[46.1 µM],10%,.,.,-3%[46.1 µM]
CCCNC(=O)C1CCN(c2nc3ccc(C)cc3[nH]2)CC1,.,.,.,7%[46.1 µM],28%,-14%,-1.4%,.
CSc1nc(Sc2cccc(Cl)c2)c2ccccc2n1,15%,3%,-11%,4%,0%,-11%,-2.2%,-2%
Cc1nc2c(-c3ccccc3)c(C)nn2c(C)c1CCC(=O)NCc1ccc(Cl)cc1,.,.,.,24%[46.1 µM],?,-1%,0.7%,6%[46.1 µM]
Cc1c(C(=O)Oc2cccc3cccnc23)oc2ccccc12,-55%,-6%,40µM*,-19%,2%,.,.,-4%[46.1 µM]
COc1ccc(Cl)cc1Nc1ccc2cc(S(=O)(=O)N3CCCCC3)ccc2n1,.,.,.,-20%[46.1 µM],-26%,25µM*,-1.0%,.
Cc1cc(NC(=O)CCCn2cc([N+](=O)[O-])cn2)n(Cc2ccc(F)cc2)n1,.,-3%,-4%,-11%,-25%,.,.,?
CC(C)CNC(=O)CCSc1nc(-c2ccc3c(c2)OCO3)cc(C(F)(F)F)n1,.,.,.,7%[46.1 µM],-11%,13%,-2.1%,-4%[46.1 µM]
O=C(NNC(=O)[C@@H]1CCCC[C@@H]1C(=O)O)Nc1ccccc1,-8%,5%,5%,?,-8%,-6%,-2.1%,3%
C(COC1CC2CC1C1C2CC2OC21)OC1CC2CC1C1C2CC2OC21 (stereo unspecified),.,.,26%,7%,-2%,.,.,3%
COc1ccc(NC(=O)c2nnn(CC(=O)Nc3ccc4c(c3)OCO4)c2N)c(OC)c1,-2%,3%,4%,?,23%,.,.,28%[46.1 µM]
COc1cccc(S(=O)(=O)c2nc(C)c3c(n2)CCC3)c1,10%,1%,-3%,.,13µM*,.,.,.
CN(C(=O)CSc1nnc(-c2ccc(F)cc2)c2ccccc12)C1CCS(=O)(=O)C1 (stereo unspecified),.,-2%,1%,0%,?,.,.,5µM*
CCC(C(=O)NC1CCCC1)n1c(SCc2cccc(C)c2)nc2ccncc21 (stereo unspecified),-30%,13%,-8%,23%,-24%,1%,-15%,-32%
CCN(C(=O)/C=C/c1ccc2c(c1)OCO2)c1ccccc1,-20%,14%,?,0%,10%,-4%,-3.7%,23%
CC(=O)C1=NN(c2ccccc2)C(c2cccs2)N1c1ccc(N(C)C)cc1 (stereo unspecified),-4%,-10%,-15%,21µM*,16µM*,?,-3.4%,?
Cc1cc(C)n(-c2nnc(C)n2/N=C/c2cc(Br)ccc2OCc2ccccc2)n1,-46%,-5%,-5%,?,-12%,?,-7.9%,-12%&-12%
O=C(CSc1nnc(CNc2ccccc2)o1)N1CCN(C(=O)c2ccco2)CC1,-1%,-18%,14%,1%,.,7%,-2.3%,2%
# Additional structures follow.
SMILES,NS1 function inh,SARS PLpro yeast,RE007 growth inh,Lassa entry inh,StopGo reporter,Cruzain noTriton,Cruzain inh Det,Marburg entry inh
Cn1c(N)c(-c2ccccc2)c2ccc([N+](=O)[O-])cc2c1=O,-8%,-2%,2%,?,1%,.,.,4%[46.1 µM]
O=C(Nc1ccc2[nH]c(=O)c(=O)[nH]c2c1)c1cccc(F)c1,.,.,.,-15%[46.1 µM],-13%,-4%,1.7%,14%[46.1 µM]
CCN(c1ccccc1)S(=O)(=O)c1csc(C(N)=O)c1,-9%,6%,4%,20%[46.1 µM],-9%,.,.,10%[46.1 µM]
COc1ccc(NS(=O)(=O)c2cccc(C(=O)N3CCN(Cc4ccc5c(c4)OCO5)CC3)c2)cc1,.,4%,-5%,?,?,.,.,?
O=C(Nc1cnc2sc3c(n2c1=O)CCCC3)c1ccc(F)cc1,-36%,1%,-12%,?,16%,-16%,-7.2%,23%
Cc1ccc(Cl)cc1NC(=O)c1cc(S(=O)(=O)N2CCOCC2)cn1C,1%,-7%,11%,-3%[46.1 µM],0%&-14%,-5%,-2.0%,.
COC(=O)C1=C(C)NC(=O)CC1c1cc(Br)ccc1F (stereo unspecified),-3%,4%,13%,-1%,-26%,14%,2.5%,-1%
O=C(CCn1c(=O)oc2ccccc21)Nc1cccc(Br)c1,-7%,3%,-1%,-3%,-2%,.,.,10%
COc1ccc(CN(C)Cc2nc(Cc3cccc(F)c3)no2)c2cccnc12,-6%,0%,8%,?,10µM*,.,.,?
CCOc1cc(/C=N/Nc2ccc(C(=O)O)cc2)ccc1OC(=O)c1ccccc1C,6%,1%,12%,.,-28%,.,.,.
COc1ccc(S(=O)(=O)N(Cc2nc3ccccc3c(=O)[nH]2)C2CCCC2)cc1,-13%,2%,12%,13%,?,6%,-5.3%,6%[46.1 µM]
CC(C)Sc1oc(-c2ccco2)nc1S(=O)(=O)c1ccccc1,-17%,-6%,5%,8%,.,-16%,-8.7%,-13%

# Not a hit list. About 4.7% of those tested had a hit in this group.
